CBX7 AlphaScr = CBX7 inhibition, primary AlphaScreen; O95931; AlphaScreen His6-CBX7 / biotin-H3K27me3 peptide binding; hits give low values; normalised signal (fraction of DMSO) (test concentration not listed); 66,000 tested, 1.1% active; in the data active means normalised signal below about 0.5;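 further: 100 nL library stock added to about 20 µL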
Target sequence (O95931 whole entry, looked up): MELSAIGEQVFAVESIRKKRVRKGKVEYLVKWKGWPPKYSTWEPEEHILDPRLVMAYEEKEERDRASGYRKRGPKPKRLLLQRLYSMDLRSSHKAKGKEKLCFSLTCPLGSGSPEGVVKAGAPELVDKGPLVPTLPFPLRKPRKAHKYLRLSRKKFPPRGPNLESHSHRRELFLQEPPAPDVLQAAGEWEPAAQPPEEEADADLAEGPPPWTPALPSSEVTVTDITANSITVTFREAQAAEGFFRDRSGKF
CBX7 AlphaScr z-score = second read-out of CBX7 AlphaScr, no call of its own (marks repeat the call); z-score; measured here: z-score of CBX7 signal; some inactives read as strong as hits; reference of the scale not given here;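 same signal on another scale; lower means less binding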
The depositor's hits bear a star; & = joins results of further samples.

Start of the listing, in advance (six entries):
structure	CBX7 AlphaScr	CBX7 AlphaScr z-score
CN(CCc1ccccn1)C(=O)c1cc2c(s1)-c1ccccc1OC2	1.02	0.982
Cc1c(C(=O)N2CCc3ccccc3C2)oc2ccc(S(=O)(=O)N3CC(C)CC(C)C3)cc12 (centres undefined)	0.897	-1.04
CCCNS(=O)(=O)c1ccc2c(c1)CCN2C(=O)CCC(=O)O	0.865	-2.22
Cc1nnc(NC(=O)CSc2nccn2-c2ccccc2)s1	1.03	0.0401
CC1(C)CC(=O)c2sc(NC(=O)CC(c3ccccc3)c3ccccc3)nc2C1	0.989	-0.342
COc1cccc(C(=O)Nc2nnc(/C=C/c3ccccc3)s2)c1	1.02	0.408

The listing, repeating the preview:
structure	CBX7 AlphaScr	CBX7 AlphaScr z-score
CN(CCc1ccccn1)C(=O)c1cc2c(s1)-c1ccccc1OC2	1.02	0.982
Cc1c(C(=O)N2CCc3ccccc3C2)oc2ccc(S(=O)(=O)N3CC(C)CC(C)C3)cc12 (centres undefined)	0.897	-1.04
CCCNS(=O)(=O)c1ccc2c(c1)CCN2C(=O)CCC(=O)O	0.865	-2.22
Cc1nnc(NC(=O)CSc2nccn2-c2ccccc2)s1	1.03	0.0401
CC1(C)CC(=O)c2sc(NC(=O)CC(c3ccccc3)c3ccccc3)nc2C1	0.989	-0.342
COc1cccc(C(=O)Nc2nnc(/C=C/c3ccccc3)s2)c1	1.02	0.408
Cn1c(C(=O)NCCc2ccc(Cl)cc2)cc2sccc21	0.996	-0.151
Cc1ccc(-c2nc(C(=O)NCc3ccc4c(c3)OCO4)c(C)o2)cc1	1.06	1.09
Cc1ccc2c(C)c(C(=O)N(Cc3cccc(Cl)c3)C3CCS(=O)(=O)C3)oc2c1 (centres undefined)	0.893	-1.17
CCN(CC)S(=O)(=O)c1ccc2c(c1)N(CC(=O)NC(C)c1ccccc1)C(=O)CS2 (centres undefined)	0.994	-0.194
Fc1ccccc1C1NCCc2cc3c(cc21)OCCO3 (centres undefined)	1.05	0.881
COc1ccccc1CNC(=O)C1CCN(S(=O)(=O)c2cccnc2)CC1	0.962	-1.01
CCOc1ccc(CCNCc2c(C)[nH]c(C)c2C(=O)O)cc1	1.03	0.844
CCCCNC(=O)c1ccc2c(c1)ncn2C1CCCCC1	1.07	3.4
O=C1NC(c2cccc(Br)c2)c2c(-c3ccccc3)n[nH]c21 (centres undefined)	0.912	-2.87
Cc1ccc(NC(=O)Cn2cnc3sc(C(=O)NCc4ccccn4)c(C)c3c2=O)cc1Cl	1.06	1.7
COc1ccc(NC(=O)C2CCCN(CCCc3ccccc3)C2)cc1OC1CCCC1 (centres undefined)	0.75	-4.95
CCN1CCN(Cc2ccc(NC(=O)Nc3ccccc3C)cc2)CC1	1.16	3.23
Cc1cccc(CCNC(=O)C2CCCN(S(=O)(=O)c3cccnc3)C2)c1 (centres undefined)	0.956	-1.49
Cn1c(SCc2ccc(F)cc2)nnc1-c1c[nH]c2ccccc12	0.972	-0.478
CCOc1ccc(NC(=O)CC2C(=O)N(c3ccccc3)C(=O)N2Cc2ccccn2)cc1 (centres undefined)	1.04	1.82
CCCCOc1ccc(C(=O)Nc2nc3c(s2)Cc2cc(OC)ccc2-3)cc1	1.03	0.402
CCCNC(=O)c1c[nH]c2ccc(S(=O)(=O)N(C)c3ccc(CC)cc3)cc2c1=O	1.07	0.824
COc1ccc(CNC(=O)c2cc3c([nH]c2=O)CC(C)(C)CC3=O)cc1	1.21	2.26
Fc1ccc(Cn2c(COc3ccc(Cl)cc3)nc3ccccc32)cc1	0.872	-1.52
CC(C)NC(=O)C(C)N1C(=O)COc2ccc(Cl)cc21 (centres undefined)	0.747	-1.98
Cc1cccc(NC(=O)CSc2ccc3nnc(-c4ccccc4)n3n2)c1C	0.941	-1.98
Cc1ccc(-c2nnc(SCC(=O)N3CC(C)CC(C)C3)o2)cc1C (centres undefined)	1.2	2.1
O=C(O)c1ccc(CSc2nccn2Cc2ccccc2)cc1	1.04	1.2
CCOc1ccccc1C(=O)Nc1ccc2nc(N3CCN(C)CC3)cc(C)c2c1	1.08	1.51
O=C(NC1CC1)c1ccc2c(c1)N(Cc1cccc(Cl)c1)C(=O)c1ccccc1S2(=O)=O	0.917	-0.524
O=C(Cn1cnc2c(nnn2Cc2ccc(F)cc2)c1=O)Nc1cccc(F)c1	1.07	1.23
COc1ccc(-c2nn(C)c3sc(C(=O)NC4CC4)cc23)cc1OC	0.986	-0.393
COC(=O)CCS(=O)(=O)c1nc(-c2ccc(OC)c(OC)c2)cc(C(F)(F)F)n1	1.15	3.22
COc1ccc(-c2csc(Nc3ccccc3Cl)n2)cc1	0.817	-3.9
COc1ccc(Cl)cc1NC(=O)c1nn(-c2ccccc2OC)c(=O)c2ccccc12	0.994	-0.18
CN(C)CCNC(=O)CN1C(=O)CSc2ccc(S(=O)(=O)N3CCCCC3)cc21	1	0.0126
O=C(Nc1ccc(C(F)(F)F)cc1)c1cnc2sccn2c1=O	1.06	0.923
Cc1cc(N2CCN(C)CC2)nc2ccc(NC(=O)c3cccc(Cl)c3)cc12	0.893	-1.17
CCOc1ccc(-c2nc(CSCC(=O)NCCc3ccc(OCC)c(OCC)c3)c(C)o2)cc1	0.557	-6.1
CCCCCOc1ccc(NC(=O)CSc2nc3ccccc3[nH]2)cc1	1.18	1.35
CCc1ccc(C2=NN(CCC(=O)NCc3ccccc3Cl)C(=O)CC2)cc1	0.902	-1.77
CCc1ccc(NC(=O)CCN2C(=O)c3cccnc3C2=O)cc1	0.882	-1.19
COc1cccc(-c2cc(C(=O)Nc3ccc(OC)cc3OC)no2)c1	0.918	-0.936
Cc1ccc2c(c1)N(CC(=O)NCCCN1CCCC1=O)C(=O)CO2	1.11	0.519
Cc1ccc(C)c(NC(=O)C2CCN(S(=O)(=O)c3ccccc3)CC2)c1	0.871	-2.39
O=c1[nH]c(-c2ccc(OCc3ccccc3F)cc2)nc2sc3c(c12)CCCC3	1.06	1.26
COc1cc(CNc2ccc3[nH]c(=O)[nH]c3c2)cc(Cl)c1OCc1cccs1	0.75	-8.92
CCC(=O)N1CCc2cc(S(=O)(=O)NC(C)CC)ccc21 (centres undefined)	1.22	2.26
CCOC(=O)c1cnc2c(OC)cccc2c1NCc1cccnc1	0.986	-0.0162
O=C(Cn1cnc2c(nnn2Cc2ccc(F)cc2)c1=O)NCc1ccc2c(c1)OCO2	1.08	1.27
CCCCCC(=O)Nc1cc(-c2nc3cc(C)cc(C)c3o2)ccc1C	1.1	3.92
O=C(Nc1ccc2c(c1)OCO2)c1cc2nc(-c3cccs3)cc(C(F)(F)F)n2n1	0.989	-0.109
COc1ccc(C23CC4CC(CC(C4)C2)C3)cc1	1.3	8.19
Cc1nc(N)sc1-c1csc(Nc2cccc(Cl)c2)n1	0.772	-4.24
CC(C)(C)C1CCc2nc3ccc(S(=O)(=O)N4CCC(C(=O)O)CC4)cc3c(C(=O)O)c2C1 (centres undefined)	1.04	0.855
Cc1ccc(-n2cc(C(=O)Nc3ccc(Oc4ccccc4)cc3)c3ccccc3c2=O)cc1C	0.944	-0.774
CCN(CC)c1ccc(NC(=O)c2cn(CC)c3nc(C)ccc3c2=O)c(C)c1	0.987	-0.143
CCOC(=O)N1CCN(c2nc(C)nc3sc4c(c23)CCCC4)CC1	1.09	2.38
CCN1CCN(c2ncc(C(=O)Nc3ccc4c(c3)OCCO4)c3ccccc23)CC1	1.29	0.592

Additional results.
structure	CBX7 AlphaScr	CBX7 AlphaScr z-score
Cc1onc(-c2ccccc2Cl)c1C(=O)Nc1nnc(Cc2ccc(Cl)cc2)s1	0.852	-3.14
Cc1nc2c(C(=O)NCCCN3CCCCC3C)cnn2c(C)c1Cc1ccccc1 (centres undefined)	0.964	-1.58
O=C(Nc1ccc(S(=O)(=O)Nc2nccc(/C=C/c3cccc([N+](=O)[O-])c3)n2)cc1)c1ccccc1	1.01	0.0382
O=C(CCCn1c(=O)[nH]c2cc(Cl)ccc2c1=O)NCc1ccc2c(c1)OCO2	0.979	-0.77
CCOc1ccc(CCNC(=O)[C@H](CSCc2ccccc2)N2Cc3ccccc3C2=O)cc1OCC	0.908	-2.62
CCOc1ccc2nc(C)cc(Nc3ccc(C(=O)OC)cc3)c2c1	1.15	1.46
OC(COc1ccc(F)cc1)Cn1c(CCc2ccccc2)nc2ccccc21 (centres undefined)	0.905	-1.23
Cc1cc(C)c(NC(=O)Nc2cccc(Cl)c2)c(Cl)n1	1.05	1.28
Cc1noc(/C=C/c2cccs2)c1S(=O)(=O)N1CCC(C(=O)NCc2ccccn2)CC1	0.923	-0.161
COc1ccc(-c2ccc(=O)n(CC(=O)Nc3ccc(Br)cc3F)n2)cc1	1.03	0.696
Brc1cccc(Cn2c(-c3cncs3)nc3ccccc32)c1	1.18	2.42
Cc1ccc(-n2cc(C(=O)Nc3ccc(C(C)C)cc3)c3ccccc3c2=O)cc1C	0.876	-0.78
Cc1ccc(NC2c3ccccc3C(=O)N2c2ccc(C)cn2)cc1 (centres undefined)	0.927	-2.39
Cc1ccc2c(c1)c(=O)c(C(=O)c1ccccc1)cn2Cc1ccccc1	0.62	-1.34
CCCCNC(=O)c1c(CC)c(-c2ccccc2)nc2ccccc12	1.05	0.598
NS(=O)(=O)c1ccc(CCNC(=O)CCCCn2c(=O)[nH]c3ccccc3c2=O)cc1	0.984	-0.0438
O=C(Nc1nonc1-c1nc2ccccc2n1Cc1ccccc1)c1ccc(F)cc1	1.01&1.05	0.284&2.19
CCOc1ccc(-c2cc(CCCC(=O)Nc3ccc(Br)cc3)no2)cc1	0.84	-0.692
O=C(CN1C(=O)c2ccccc2S1(=O)=O)Nc1ccccc1F	1.04	2.01
O=C(Nc1ccc(-c2nc3cc(Cl)ccc3o2)cc1)c1cccnc1	0.936	-0.762

Fetched by structure from the list above (3):
structure	CBX7 AlphaScr	CBX7 AlphaScr z-score
O=C(Nc1ccc(-c2nc3cc(Cl)ccc3o2)cc1)c1cccnc1	0.936	-0.762
O=C(CN1C(=O)c2ccccc2S1(=O)=O)Nc1ccccc1F	1.04	2.01
CCOc1ccc(-c2cc(CCCC(=O)Nc3ccc(Br)cc3)no2)cc1	0.84	-0.692

(further entries)
Under each structure – CBX7 AlphaScr | CBX7 AlphaScr z-score
> Clc1ccccc1-c1nnc2sc(C3COc4ccccc4O3)nn12 (centres undefined)
→ 1.03 | 0.914
> CCC(C)NC(=O)C1CC(c2ccc(F)cc2)=NO1 (centres undefined)
→ 1.06 | 2.8
> CCOC(=O)c1c(NC(=O)c2cccc(C)c2)sc2c1CCC2
→ 1.43 | 17
> CCc1cccc(C)c1Nc1nc(-c2ccccc2)nc2ccccc12
→ 1.24 | 2.62
> COc1ccc(CCNC(=O)CS(=O)(=O)Cc2nc(-c3ccc(C)cc3)oc2C)cc1OC
→ 1.04 | 0.0905
> CC1CCN(CCCNC(=O)C2CCN(S(=O)(=O)c3cnc[nH]3)CC2)CC1
→ 1.16 | 3.08
> Cc1cc(N2CCC(C)CC2)nc2ccc(NC(=O)c3cc(Br)ccc3Cl)cc12
→ 0.811 | -2.05
> Cc1ccc(Cn2cc(CCC(=O)NCc3ccccc3)c3ccccc32)cc1
→ 0.945 | -0.431
> CC(C)CNC(=O)c1nn2c(C(F)(F)F)cc(-c3cccs3)nc2c1Cl
→ 1.03 | 1.18
> COC(=O)c1cccc(CNCCc2c(C)[nH]c3ccc(OC)cc23)c1
→ 0.705 | -4.54
> Cc1ccc2nc(-c3cccs3)c(Nc3ccc4c(c3)OCCO4)n2c1
→ 0.91 | -0.123
> Cc1ccccc1NS(=O)(=O)c1ccc2[nH]cc(C(=O)NC3CC3)c(=O)c2c1
→ 1.01 | 0.374
> Cc1ccc(Nc2nc(-c3ccc(-c4ccccc4)cc3)cs2)cc1Cl
→ 0.884 | -2.57
> O=C(CSc1nccn1-c1ccc(Cl)cc1)Nc1cccc(Cl)c1
→ 0.552 | -1.58
> Cc1cc(OCc2nc3ccccc3[nH]2)ccc1C(C)C
→ 0.97 | -0.658
> CN1CCSc2ccc(C(=O)Nc3cccc(F)c3)cc21
→ 0.913 | -1.34
> Cc1ccccc1Nc1cc(C(=O)NC2CCC(C)CC2)c2ccccc2n1 (centres undefined)
→ 1.03 | 0.947
> Cc1ccc(-c2nc(NCC(C)C)c3ccccc3n2)cc1
→ 1.21 | 5.82
> COc1ccc(C(=O)NCC2(c3ccc(OC)c(OC)c3)CCCC2)cc1OC
→ 1.01 | 0.229
> Cc1noc(C)c1S(=O)(=O)N1CCN(Cc2ccc3c(c2)OCO3)CC1
→ 0.95 | -2.6
> Fc1ccc(OCc2nc3ccccc3n2Cc2ccccc2)cc1
→ 0.984 | -0.298
> O=C(Nc1c(F)cccc1F)N(CCCN1CCOCC1)Cc1cccs1
→ 1.04 | 0.0395
> COc1cc(-c2nc(-c3ccccc3)c(-c3ccccc3)[nH]2)ccc1OCc1ccc(Cl)cc1
→ 0.623 | -4.85
> CCOc1ccc2nc(C(=O)Nc3ccc(C)cc3)sc2c1
→ 1.3 | 3.89
> COc1ccc(OCC(O)CN2CCCCC2C)cc1 (centres undefined)
→ 1.05 | 0.844
> Clc1ccc2nc(-c3ccncc3)c(NC3CCCC3)n2c1
→ 1.07 | 1.98
> Cc1ccc(C(C(=O)NC2CCCC2)N2CCC3(CC2)OCCO3)cc1 (centres undefined)
→ 1.03 | 1.43
> Cc1ccc(CNS(=O)(=O)c2ccc3c(c2)CCC(=O)N3)cc1
→ 0.97 | -0.663
> COC(=O)c1ccc(NC(=O)C2CC2(c2cccc(C)c2)c2cccc(C)c2)cc1 (centres undefined)
→ 1.09 | 1.08
> COC(=O)C1CCN(C(=O)c2c(-c3ccccc3Cl)noc2C)CC1
→ 0.97 | -0.596
> OC(COc1ccc2ccccc2c1)CN1CCN(c2ccc(F)cc2)CC1 (centres undefined)
→ 1.02 | 0.72
> N#Cc1ccccc1NC(=O)CSc1nc2ccccc2[nH]1
→ 0.926 | -1.17
> Cc1n[nH]c(C)c1CCCCOc1ccccc1F
→ 0.969 | -0.0423
> CCc1ccc(Nc2nc3ccccc3nc2NS(=O)(=O)c2ccc(C)cc2)cc1
→ 0.828 | -4.95

Only part of the results is shown. The share of hits here may be higher or lower than overall.
